Hedgehog inh: Sonic Hedgehog pathway inhibition. hit rate 2.1% among 22,000. Shh-LIGHT2 Gli-luciferase reporter, 30 h. inhibition, % (no concentration beside the values);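 active = replicate mean of 65% or more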;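 also: pathway switched on by Shh-conditioned medium diluted 1 in 25 in low serum; 100 nL library stock added to about 40 µL; 0% = median of neutral wells and 100% = positive control level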
MITF inh: MITF inhibition; inhibition, % (test concentration not listed); hit rate 0.28% among 37,000; TRPM1 promoter luciferase, luminescence, 24 h;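 active = most replicates at 85% or more, or half of them and the mean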;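 also: human melanocyte line stably carrying TRPM1 promoter luciferase reporter; 0% = vehicle wells and 100% = a positive control; the first replicate is given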
PD-1 reverse act: activators reversing PD-1 mediated T-cell inhibition; primary human CD4 T cells, PD-L1 beads, CellTiter-Glo 96 h; activation, % (test concentration not listed); 29,000 tested, under 10 active; AID 2316;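 active = replicate mean of 50% or more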;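 also: 0% = median vehicle wells and 100% = positive control; 100 nL library stock added to about 50 µL; numbers are from one replicate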
YB-1 expr inh: YB-1 expression inhibition; U2OS, qRT-PCR YB-1 vs CDIP delta delta Cp, 16 h; stronger effect = higher value; zero = DMSO, each unit about twofold; delta delta Cp (YB-1 minus CDIP) (test concentration not listed); hit rate 0.37% among 30,000; AID 434959;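 active = delta delta Cp rounded down to an integer at or above 3, about 3 SD of DMSO wells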;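 also: higher means less YB-1 transcript or more CDIP transcript relative to DMSO; stock transfer was 100 nL into about 100 µL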
Starred values were filed as active, the others as inactive; x = not tested or not shown. Some of the compounds tested, so the mix of outcomes need not match the whole.

SMILES | Hedgehog inh | MITF inh | PD-1 reverse act | YB-1 expr inh
C[C@@H]1CN([C@H](C)CO)C(=O)c2cccc(NC(=O)Nc3ccc4c(c3)OCO4)c2O[C@@H]1CN(C)Cc1ccc(C(=O)O)cc1 | 33.5 | -3.3 | 0.6 | -0.636
C[C@@H]1CN([C@@H](C)CO)C(=O)Cc2cc(NS(=O)(=O)c3cccs3)ccc2O[C@@H]1CN(C)Cc1ccc(C(F)(F)F)cc1 | 5.3 | -15.1 | 2.0 | -0.0959
Cc1noc(C)c1S(=O)(=O)Nc1ccc2c(c1)CC(=O)N([C@@H](C)CO)C[C@@H](C)[C@@H](CN(C)C(=O)Nc1ccc(F)cc1)O2 | -22.1 | -5.7 | -0.2 | 0.442
C[C@H]1CN([C@@H](C)CO)C(=O)c2cccc(NC(=O)C3CC3)c2O[C@@H]1CN(C)S(C)(=O)=O | -57.7 | -1.7 | x | -0.0622
CCOC(=O)C1CCCn2c1nc1sc3c(c1c2=O)CCCC3 (configuration not stated) | -69.9 | -9.6 | 1.6 | -0.855
C[C@H]1CN([C@@H](C)CO)C(=O)c2cc(NC(=O)Nc3ccc4c(c3)OCO4)ccc2O[C@H]1CN(C)Cc1ccc(C(=O)O)cc1 | x | -9.8 | 5.4 | -0.265
COc1ccc(NC(=O)N(C)C[C@@H]2Oc3ccc(NC(=O)CCCCCC(=O)Nc4ccccc4N)cc3C(=O)N([C@@H](C)CO)C[C@@H]2C)cc1 | x | 0.7 | -0.3 | 0.544
C[C@H](CO)N1C[C@H](C)[C@H](CN(C)Cc2ccc(Oc3ccccc3)cc2)Oc2ccc(NS(=O)(=O)c3ccc(Cl)cc3)cc2CC1=O | -44.2 | 7.2 | 1.0 | -0.0569
CNC[C@@H]1Oc2ccc(NC(=O)Cn3cnnn3)cc2C(=O)N([C@@H](C)CO)C[C@@H]1C | -32.9 | -14.4 | 1.2 | -0.101
COc1ccc(NC(=O)Nc2cccc3c2O[C@H](CN(C)C(=O)Nc2ccc(F)cc2)[C@H](C)CN([C@@H](C)CO)C3=O)cc1 | -6.6 | -7.3 | 0.9 | -0.385
CN(C)CCOC(c1ccc(Cl)cc1)c1ccccn1 (configuration not stated) | 5.6 | 3.2 | x | 0.369
O=C(CCn1nc(-c2ccccc2)c2ccccc2c1=O)Nc1cccnc1 | x | 4.6 | -1.6 | x
C[C@@H]1CN([C@H](C)CO)C(=O)c2cccc(NS(=O)(=O)c3ccc(F)cc3)c2O[C@H]1CN(C)Cc1ccc(Oc2ccccc2)cc1 | 23.1 | 47.8 | -2.8 | 0.263
C[C@H](CO)N1C[C@H](C)[C@H](CN(C)Cc2ccc(Cl)c(Cl)c2)Oc2ccc(NC(=O)Nc3ccc(F)cc3)cc2C1=O | x | 5.2 | 0.6 | -0.0194
COc1ccc(NC(=O)Nc2cccc3c2O[C@@H](CN(C)S(=O)(=O)c2ccccc2)[C@H](C)CN([C@H](C)CO)C3=O)cc1 | 10.5 | -4.3 | 1.1 | -0.886
Cc1c(N(C)C(=O)C2CCCN2S(=O)(=O)c2ccccc2)c(=O)n(-c2ccccc2)n1C (configuration not stated) | x | -18.1 | 1.6 | x
COc1cccc2cc(-c3nnc(SCC(=O)Nc4cccc(Br)c4)n3C)oc12 | x | 36.2 | -14.3 | x
C=CCNc1sc(C)nc1C(N)=O | 15.4 | 4.1 | -0.7 | -0.518
C[C@@H]1CN([C@@H](C)CO)C(=O)c2cc(NS(=O)(=O)c3ccccc3)ccc2O[C@H]1CN(C)Cc1ccc2c(c1)OCO2 | x | 7.6 | 1.1 | -0.0978
Cc1nnc(SCC(=O)Nc2ccccc2C(F)(F)F)s1 | x | 8.1 | 2.2 | x
C[C@@H]1CN([C@@H](C)CO)C(=O)c2cccc(NC(=O)c3ccncc3)c2O[C@@H]1CN(C)S(=O)(=O)c1ccc(F)cc1 | 37.4 | -46.5 | 0.0 | 0.378
CCc1cc(C(c2ccc(Cl)cc2)N2CCN(CCO)CC2)c(NC(=O)c2ccccc2)s1 (configuration not stated) | 81.2* | 54.6 | -6.2 | -0.176
C[C@@H]1CN([C@H](C)CO)C(=O)c2cc(NC(=O)CCCN(C)C)ccc2O[C@@H]1CN(C)S(C)(=O)=O | x | 11.8 | 0.8 | -0.337
CNC[C@H]1OCCCC[C@@H](C)Oc2ccc(NS(=O)(=O)c3ccccc3)cc2C(=O)N([C@H](C)CO)C[C@@H]1C | x | -4.6 | 0.6 | -0.0848
Cc1ccc2c(c1)C(=O)C1(O)CCN(c3ccccc3)C1=N2 (configuration not stated) | -254.4 | 13.0 | 3.3 | 0.196
C=C(Oc1cccc(C(=O)O)c1)C(=O)O | -19.7 | 3.7 | 3.0 | 0.207
C[C@@H]1CN([C@@H](C)CO)C(=O)c2cc(NC(=O)Cn3cnnn3)ccc2O[C@H]1CN(C)C(=O)NC1CCCCC1 | -2.6 | 2.3 | 1.8 | 1.93
c1ccc(NC2CCCCC2)nc1 | 13.3 | -20.7 | 1.8 | -0.528
CC(C)NC(=O)Nc1ccc2c(c1)C(=O)N([C@@H](C)CO)C[C@@H](C)[C@H](CN(C)C(=O)Nc1ccc3c(c1)OCO3)O2 | -8.1 | -11.8 | 0.5 | -0.159
Cc1nc2cc(NS(=O)(=O)c3cccc4cccnc34)ccc2s1 | x | 39.5 | 0.5 | x
C[C@H]1CN([C@@H](C)CO)C(=O)Cc2cc(NS(C)(=O)=O)ccc2O[C@@H]1CN(C)C(=O)Nc1ccc(F)cc1 | -26.1 | 13.8 | x | -0.353
C[C@H]1CN([C@@H](C)CO)C(=O)Cc2cc(NC(=O)Cc3cn(C)c4ccccc34)ccc2O[C@H]1CN(C)Cc1ccc(Cl)c(Cl)c1 | -9.8 | 12.2 | x | -0.211
COc1ccc(NC(=O)N(C)C[C@@H]2Oc3ccc(NC(=O)Nc4ccc5c(c4)OCO5)cc3C(=O)N([C@@H](C)CO)C[C@@H]2C)cc1 | -18.3 | 2.5 | 0.3 | -0.432
CC(=O)O[C@H]1[C@H](Oc2cc(O)cc(O)c2C(=O)c2cc(O)cc(O)c2)O[C@H](CO)[C@@H](OC(=O)c2ccccc2)[C@@H]1O | -29.2 | 0.8 | 0.1 | -0.322
Cc1c(O)cc(O)c2c1OC(c1ccccc1)CC2=O (configuration not stated) | -8.2 | -3.4 | -0.8 | 0.334
C[C@@H]1CN([C@@H](C)CO)C(=O)c2cc(NC(=O)Nc3ccc4c(c3)OCO4)ccc2O[C@@H]1CN(C)Cc1ccc(Cl)c(Cl)c1 | x | 2.4 | 1.6 | -0.153
N#Cc1c(NC(=O)CSc2ncccn2)sc2c1CCCC2 | x | 23.2 | -0.6 | x
C[C@H](CO)N1C[C@H](C)[C@H](CN(C)C(=O)Nc2ccc(C(F)(F)F)cc2)Oc2ccc(NC(=O)Nc3cccc4ccccc34)cc2CC1=O | 5.5 | 19.4 | x | 0.0885
Cc1noc(C)c1NC(=O)Nc1cccc2c1O[C@@H](CN(C)Cc1ccccc1)[C@@H](C)CN([C@H](C)CO)C2=O | -62.0 | 3.9 | 1.8 | 1.48
C[C@H](CO)N1C[C@H](C)[C@H](CN(C)CC2CCCCC2)Oc2ccc(NC(=O)Nc3ccc(F)cc3)cc2CC1=O | x | -4.5 | x | -0.257
C[C@@H]1CCCCO[C@H](CN(C)C(=O)C2CCCCC2)[C@@H](C)CN([C@H](C)CO)C(=O)c2cc(NC(=O)CCC(F)(F)F)ccc2O1 | 4.7 | -12.6 | 2.2 | 0.317
C[C@H]1CN([C@@H](C)CO)C(=O)c2cc(N(C)C)ccc2O[C@H]1CN(C)S(=O)(=O)c1cccs1 | -12.9 | 5.6 | -2.0 | -0.194
Cc1ccc(S(=O)(=O)N(C)C[C@H]2Oc3ccc(NS(=O)(=O)c4c(C)noc4C)cc3CC(=O)N([C@H](C)CO)C[C@H]2C)cc1 | 20.4 | -5.9 | -4.3 | 0.64
C[C@@H]1CN([C@@H](C)CO)C(=O)c2cc(N(C)C)ccc2O[C@@H]1CN(C)S(=O)(=O)c1cn(C)cn1 | -13.2 | 2.9 | 1.4 | 0.532
Cc1cc(C)c(NC(=O)CSc2nc(C)cc(=O)[nH]2)c([N+](=O)[O-])c1 | x | 10.1 | 0.0 | x
COc1ccc(NC(=O)N(C)C[C@@H]2Oc3c(NS(=O)(=O)c4ccccc4)cccc3C(=O)N([C@H](C)CO)C[C@H]2C)cc1 | 28.7 | -0.7 | x | 0.151
C[C@@H]1CN([C@H](C)CO)C(=O)c2cc(NS(=O)(=O)c3cccs3)ccc2O[C@H]1CN(C)Cc1ccc(C(=O)O)cc1 | 42.7 | -2.5 | 0.3 | -0.193
C[C@@H]1CN([C@@H](C)CO)C(=O)Cc2cc(NS(=O)(=O)c3ccccc3)ccc2O[C@@H]1CN(C)Cc1ccc(C(=O)O)cc1 | 0.5 | -4.6 | x | -0.0587
C[C@H]1CN([C@@H](C)CO)C(=O)c2cccc(NS(=O)(=O)c3cn(C)cn3)c2O[C@H]1CN(C)Cc1ccc(-c2ccccc2)cc1 | -18.6 | 6.0 | -0.7 | -0.337
O=C(CSc1nnc(-c2cccc(Br)c2)n1-c1ccccc1)c1ccc(F)cc1 | x | 11.5 | -8.2 | x

The listing continues:
SMILES | Hedgehog inh | MITF inh | PD-1 reverse act | YB-1 expr inh
C[C@@H]1CN([C@H](C)CO)C(=O)c2cccc(NC(=O)C3CC3)c2O[C@@H]1CN(C)C | -17.0 | -10.6 | 1.1 | 0.367
C[C@@H]1CN([C@H](C)CO)C(=O)c2cc(NC(=O)C3CCCCC3)ccc2O[C@@H]1CN(C)Cc1ccc(Cl)c(Cl)c1 | x | 11.1 | -1.7 | -0.105
COc1ccc(CN(C)C[C@H]2Oc3c(NS(=O)(=O)c4ccc(F)cc4)cccc3C(=O)N([C@@H](C)CO)C[C@H]2C)cc1 | -2.0 | 0.3 | x | -0.0584
Cc1ccc(S(=O)(=O)N(C)CC(=O)Nc2ccc(Cl)cc2C(F)(F)F)cc1 | x | -3.1 | 0.7 | x
CC(C(=O)Nc1cccc(Cl)c1)N(c1ccc(Cl)cc1)S(C)(=O)=O (configuration not stated) | x | 22.8 | -6.6 | x
C[C@@H]1CN([C@@H](C)CO)C(=O)c2cccc(NS(=O)(=O)c3ccc(Cl)cc3)c2O[C@H]1CN(C)Cc1ccncc1 | -17.8 | -10.6 | -0.2 | -0.262
COc1ccc(S(=O)(=O)Nc2ccc3c(c2)C(=O)N([C@H](C)CO)C[C@H](C)[C@@H](CN(C)Cc2ccc4c(c2)OCO4)O3)cc1 | 2.8 | 8.2 | x | 0.0523
O=C(CSc1ccc(Cl)cc1)Nc1cscc1S(=O)(=O)c1ccc(Cl)cc1 | x | 25.2 | -1.5 | -0.162
C[C@@H]1CN([C@H](C)CO)C(=O)c2cccc(NC(=O)Nc3ccc(F)cc3)c2O[C@H]1CN(C)S(=O)(=O)c1cccs1 | -11.5 | 5.5 | 0.7 | 0.105
CC(C)NC(=O)N(C)C[C@H]1Oc2ccc(NC(=O)C3CCCCC3)cc2C(=O)N([C@H](C)CO)C[C@H]1C | 22.9 | -8.3 | x | -0.0782
COc1ccc(NC(=O)N(C)C[C@@H]2Oc3ccc(NC(=O)CCN4CCOCC4)cc3CC(=O)N([C@H](C)CO)C[C@H]2C)cc1 | 16.8 | -2.4 | x | -0.262
CNC[C@@H]1Oc2c(NS(=O)(=O)c3ccccc3)cccc2C(=O)N([C@H](C)CO)C[C@@H]1C | 14.2 | 4.5 | -0.8 | -0.154
C[C@H](CO)N1C[C@H](C)[C@H](CN(C)Cc2ccc(C(=O)O)cc2)Oc2ccc(NC(=O)NC3CCCCC3)cc2CC1=O | -23.9 | -6.9 | -0.5 | 0.101
C[C@@H]1CN([C@@H](C)CO)C(=O)c2cccc(NC(=O)C3CCOCC3)c2O[C@@H]1CN(C)Cc1ccc(C(F)(F)F)cc1 | 5.6 | 3.8 | 1.1 | -0.308
COc1ccc(S(=O)(=O)Nc2ccc3c(c2)C(=O)N([C@H](C)CO)C[C@H](C)[C@@H](CN(C)C)OCCCC[C@@H](C)O3)cc1 | -39.4 | -7.9 | x | 0.046
C[C@H](CO)N1C[C@H](C)[C@H](CN(C)CC2CCCCC2)Oc2c(NC(=O)Nc3cccc4ccccc34)cccc2C1=O | 1.5 | 2.6 | x | -0.144
COc1ccc(NC(=O)N(C)C[C@H]2Oc3ccc(NC(=O)C4CCCCC4)cc3C(=O)N([C@H](C)CO)C[C@H]2C)cc1 | x | -2.4 | 2.6 | 0.125
C[C@@H]1CN([C@@H](C)CO)C(=O)c2cccc(NS(C)(=O)=O)c2O[C@@H]1CN(C)Cc1ccccc1 | -4.8 | -5.7 | x | -0.39

At a glance, some entries already given:
SMILES | Hedgehog inh | MITF inh | PD-1 reverse act | YB-1 expr inh
COc1ccc(S(=O)(=O)Nc2ccc3c(c2)C(=O)N([C@H](C)CO)C[C@H](C)[C@@H](CN(C)C)OCCCC[C@@H](C)O3)cc1 | -39.4 | -7.9 | x | 0.046
C[C@H](CO)N1C[C@H](C)[C@H](CN(C)CC2CCCCC2)Oc2c(NC(=O)Nc3cccc4ccccc34)cccc2C1=O | 1.5 | 2.6 | x | -0.144
COc1ccc(NC(=O)N(C)C[C@H]2Oc3ccc(NC(=O)C4CCCCC4)cc3C(=O)N([C@H](C)CO)C[C@H]2C)cc1 | x | -2.4 | 2.6 | 0.125
C[C@@H]1CN([C@@H](C)CO)C(=O)c2cccc(NS(C)(=O)=O)c2O[C@@H]1CN(C)Cc1ccccc1 | -4.8 | -5.7 | x | -0.39

Compound activity from PubChem BioAssay.
